AmpC inh no det = inhibitors of E. coli AmpC beta-lactamase without detergent; P00811; AmpC nitrocefin hydrolysis, absorbance 480 nm, no detergent; potencies from a single point are estimates; Potency, µM (highest dose often 28.7 µM), for inactives: at the highest dose activity change, negative = inhibition; 71,000 compounds, 1.8% hits; active = falling curve, for most hits resting on a single point; inconclusive = weak or doubtful change; inactive = flat or rising curve; note: % of control where 0% means no effect; about half of the hits show no inhibition at the top dose; a quarter of the inactives give rising signals
Target sequence (P00811 whole entry, looked up): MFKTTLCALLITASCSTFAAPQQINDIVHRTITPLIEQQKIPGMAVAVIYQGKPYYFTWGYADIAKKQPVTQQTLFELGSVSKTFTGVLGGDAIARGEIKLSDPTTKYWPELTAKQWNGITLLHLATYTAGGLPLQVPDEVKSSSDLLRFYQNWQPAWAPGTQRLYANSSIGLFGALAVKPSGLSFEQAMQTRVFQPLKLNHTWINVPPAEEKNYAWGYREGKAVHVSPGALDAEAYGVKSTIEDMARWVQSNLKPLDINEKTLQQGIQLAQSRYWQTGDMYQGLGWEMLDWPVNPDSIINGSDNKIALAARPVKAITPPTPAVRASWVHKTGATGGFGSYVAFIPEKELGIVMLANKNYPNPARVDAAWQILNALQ
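AmpC, 20 mM phosphate pH 7.0; 15 min cpd preinc, RT; start with nitrocefin (800 uM stock); A480 kinetic read, 20 s intervals, 4 min. No-enzyme wells = negative control.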
* marks the source's active call; other numbers are inactive results; ? = inconclusive; & = joins results of further samples; [ ] = another dose, or the depositor's remark. Potency is the fitted concentration of half-maximal effect.

SMILES	AmpC inh no det
O=C1CSC2(CCN(CCCN3c4ccccc4Sc4ccc(Cl)cc43)CC2)N1	69%[5.75 µM]
CC[C@@H]1[C@@H]2Cc3ccc(O)cc3[C@@]1(CC)CCN2C	1%[5.75 µM]
CC(C)C(c1nnnn1Cc1ccccc1)N1CCC(C(N)=O)CC1 (stereo unspecified)	21%
CN(C)CCSc1nc(N)c2c3c(sc2n1)COC(C)(C)C3	29%
Cc1ccc2c(CC(=O)OC(C)C(=O)NCc3ccc4c(c3)OCO4)coc2c1 (stereo unspecified)	23%
Cc1cc(Nc2ccccc2N2CCOCC2)n2ncnc2n1	16%
Cc1cc(C(C)(C)C)oc1C(=O)N1CCN(C(=O)c2oc(C(C)(C)C)cc2C)CC1	140%
CN1CCN(c2nc3c(c(=O)[nH]c(=O)n3C)n2CCCSc2ncccn2)CC1	-9%
CCC(CC)c1nnc(NS(=O)(=O)Cc2ccccc2)s1	-6%
COC1(OC)N=C(N)C2(C#N)C(c3ccc(F)cc3)C12C#N (stereo unspecified)	19%
COc1ccc(Cc2noc(-c3ccc(C)cc3)n2)cc1	1%
O=c1cc(CSc2ccc(S(=O)(=O)N3CCCCC3)cn2)nc2sccn12	56%
CCC(=NC1CCN(Cc2ccccc2)CC1)c1c(O)[nH]c(=O)[nH]c1=O	-16%
CC(=O)NC1N=C(C)N(c2ccccc2)C1=O (stereo unspecified)	-3%
CC(C)NC(=O)N1CCCC2(CCN(C(=O)c3ccco3)CC2)C1	135%
O=C(COC(=O)CCc1c[nH]c(=O)[nH]1)Nc1ccccc1Cl	-8%
CC(=O)c1cc2c(cc1NC(=O)c1cc(C)nn1-c1ccccc1)OCO2	-2%
COc1ccc(C2CC(=O)C(C=NCCN3CCN(C(C)=O)CC3)=C(O)C2)cc1OC (stereo unspecified)	-3%
CCCCn1c(C)nc2c(=O)n(C)c(=O)[nH]c21	-5%
CCOC(=O)C1=C(C)NC(=O)NC1c1ccc(NC(C)=O)cc1 (stereo unspecified)	-6%
O=C(CCSc1nnc2scc(-c3ccccc3)n12)Nc1nc(-c2ccccc2)ns1	5µM*
Clc1ccccc1CSc1nnc(-c2cccnc2)n1Cc1ccco1	-2%
C[C@@H]1c2ccccc2CN1CC1=NCCN1	26%
Cc1oc2c(CN3CCCC3)c(O)ccc2c(=O)c1Oc1ccccc1Br	35%
O=C(Nc1ccon1)C1CCN(S(=O)(=O)c2cccs2)CC1	-6%
Cc1cnc(CNc2ncncc2-c2ccccc2C(F)(F)F)cn1	20%
CC(C)C(=O)NC(C)C(c1cccs1)N1CCN(C)CC1 (stereo unspecified)	7%
COc1ccc(OC)c(C2CC(=O)c3c([nH]c(C(=O)OCC4CCCO4)c3C)C2)c1 (stereo unspecified)	30%
CCCN1CN(Cc2ccccc2)CC2=C1CC(C)(C)CC2=O	26%
CCC(=O)Nc1nnc(Sc2ccc(N(C)C)cc2)s1	2%
N#CC(C(=O)C1CCCCC1)c1nc2ccccc2[nH]1 (stereo unspecified)	-11%
Cc1cc(S(=O)(=O)Nc2c(C(=O)O)[nH]c3ccccc23)ccc1F	-20%
CC1(C)NC(=O)N(CCCCOc2cccc(C(F)(F)F)c2)C1=O	51%
Cc1cc(C2C(=O)C(C(=O)c3ccc(Cl)cc3)C(=O)CC2(C)C)on1 (stereo unspecified)	-4%
CC(C)[C@@]1(NC(=O)[C@@H]2C[C@H]3c4cccc5[nH]cc(c45)C[C@@H]3N(C)C2)O[C@@]2(O)[C@H]3CCCN3C(=O)[C@H](Cc3ccccc3)N2C1=O	109%&124%
O=C(NCc1ccc(F)cc1)c1cnc2sccn2c1=O	14%
CCOC(=O)c1cccc(NC(=O)CSc2nnc(COc3ccccc3C)o2)c1	-8%
Cn1c(=O)oc2cc(S(=O)(=O)N3CCN(c4ccccn4)CC3)ccc21	-8%
Cc1c(NC(=O)C(C)OC(=O)c2cc3c4ccccc4n(C)c3s2)c(=O)n(-c2ccccc2)n1C (stereo unspecified)	152%
COc1ccc(OC)c(NC(=O)C2COc3ccccc3O2)c1 (stereo unspecified)	8%
Cc1nnc2n(Cc3ccccc3)c(=O)c3c4c(sc3n12)CCCC4	2%
Cc1cc(C)c(S(=O)(=O)N(C)CC(=O)NC2CCCC2)c(C)c1	44%
COc1cc(Cn2c(C(=O)O)cc3sccc32)cc(OC)c1OC	5%
O=C(c1ccco1)N1CCN(Cc2ccccc2C(F)(F)F)CC1	58%
CC(C)C1CC(c2csc(N)n2)CCO1 (stereo unspecified)	-4%
COc1ccc(N(CC(=O)N2CCCCC2)S(=O)(=O)c2c(C)nn(C)c2C)cc1	115%
O=C(CSc1nnc2ccccn12)N1CCOCC1	14%
C#CCSc1nsc(SCC#C)c1C#N	-23%
CC(C)(C)NC(=O)c1cc(NC(=O)c2ccco2)cc(NC(=O)c2ccco2)c1	12%
COc1ccc(S(=O)(=O)N2CCn3c2nc2ccccc23)cc1	-4%
More entries.
SMILES	AmpC inh no det
N#C/C(=C(/O)COC(=O)c1ccc2c(c1)OCCO2)c1nc2ccccc2[nH]1	-17%
CN(C)Cc1ccccc1-c1cncnc1Nc1ccc(F)cc1	-12%
O=c1nc(N2CCOCC2)nc2n1CCO2	14%
Cc1ccc(CN(Cc2cc3cc(C)ccc3[nH]c2=O)C(=O)N2CCOCC2)cc1	115%
Cc1ccc(CNc2ccc(N3CCOCC3)c(C(=O)O)c2)s1	3%
O=C(Nc1ccccc1Oc1ccccc1)c1cnccn1	14%
COc1cc(C(c2nnnn2C2CCCC2)N2CCN(C)CC2)cc(OC)c1OC (stereo unspecified)	1%
COc1ccccc1NC(=O)NC(N)=O	0%
N#Cc1c(N)oc(-c2ccc3c(c2)OCO3)c1-c1ccc2c(c1)OCO2	10µM*
CSc1nc2cc(F)c(F)cc2n1C	-1%
CCOC(=O)c1oc2nc(C(C)C)c3c(c2c1N)CC(C)(C)OC3	59%
Cc1nc(NC2CCCCC2)c2nc(-c3ccccc3)n(CCCN3CCOCC3)c2n1	175%
c1ccc(C2NCCn3cccc32)cc1 (stereo unspecified)	33%
COc1cccc(Cn2c(=O)cnc3cnc(OCc4ccccc4)nc32)c1	69%
C[N+](C)(C)C/C=C1/COCO1	3%
CNC(=O)[C@H]1O[C@H](n2cnc3c(NCc4cccc(I)c4)ncnc32)[C@@H](O)[C@@H]1O	93%
CCCc1nnc(NC(=O)c2ccncc2)s1	12%
CCc1c(C)sc(NC(=O)c2cc(C)no2)c1C#N	-4%
O=C(c1ccc(Cn2c(=O)[nH]c3ccccc3c2=O)cc1)N1CCN(c2ccccc2)CC1	60%
O=C(Nc1ccc2c(c1)OCO2)C1(S(=O)(=O)c2ccc(Cl)cc2)CC1	1%

Brought forward from above: two entries; new compounds follow.
SMILES	AmpC inh no det
O=C(c1ccc(Cn2c(=O)[nH]c3ccccc3c2=O)cc1)N1CCN(c2ccccc2)CC1	60%
O=C(Nc1ccc2c(c1)OCO2)C1(S(=O)(=O)c2ccc(Cl)cc2)CC1	1%
CC(NS(=O)(=O)c1ccc(F)cc1)C(c1cccs1)N1CCN(C)CC1 (stereo unspecified)	-5%
COc1ccccc1Cn1c(=S)[nH]c2cc(C(=O)NCCN3CCOCC3)ccc2c1=O	111%
CCN1C(=Nc2ccc(Cl)cc2)SC/C1=C\C(=O)OC	5%
O=C(Cn1ccc2ccccc2c1=O)NCCC(=O)Nc1cccnc1	-2%
O=C(CSc1ccc2nnc(-c3ccc(F)cc3)n2n1)NCc1ccco1	-2%
CC1CCCN(c2ccc(C(=O)NCC3CCCO3)cn2)C1 (stereo unspecified)	14%
O=S1(=O)NC2CCCCCN2c2ccc(F)cc21 (stereo unspecified)	-5%
CC(C)(C)CC(=O)N1CCC(c2nc3c(nnn3Cc3c(F)cccc3Cl)c(=O)[nH]2)CC1	61%
Cn1c(=O)c2c(nc(OC/C=C/c3ccccc3)n2C)n(C)c1=O	6%
COc1ccc(C2OC(=O)CC2C(=O)N2CCN(c3cc(Cl)ccc3C)CC2)cc1OC (stereo unspecified)	122%
Cc1ccc2cc3c(NC(=O)C(C)C)nn(C)c3nc2c1	40%
O=C(c1cc(C(F)(F)F)cc(C(F)(F)F)c1)N1CCC2(CCN(Cc3ccncc3)CC2)CC1	126%
COCCNS(=O)(=O)c1cc(-c2nn(C)c(=O)c3ccccc23)ccc1C	19%
CC(=O)Cc1nsc(NC(=O)c2cc(-c3cccc(C(F)(F)F)c3)oc2C)n1	16µM*[single pt active]
COc1cc(OC)cc(C(=O)NCCNC(=O)c2ccccc2)c1	-5%
Nc1ccc2[nH]cc(CCC(=O)O)c2c1	-6%[5.75 µM]
CCNC(=O)C1CCCN1S(=O)(=O)c1ccc(OC)cc1 (stereo unspecified)	-2%
O=c1[nH]c(CN2CCN(CCO)CC2)nc2ccccc12	0%
CC1(C)CC(=O)N(CC(=O)NCc2ccc(F)cc2)c2ccccc2S1(=O)=O	30%
O=S1(=O)CCN(Cc2ccccn2)CC1	1%[5.75 µM]

Gathered by group: the entries above containing a tert-butyl group
SMILES	AmpC inh no det
Cc1cc(C(C)(C)C)oc1C(=O)N1CCN(C(=O)c2oc(C(C)(C)C)cc2C)CC1	140%
CC(C)(C)NC(=O)c1cc(NC(=O)c2ccco2)cc(NC(=O)c2ccco2)c1	12%
CC(C)(C)CC(=O)N1CCC(c2nc3c(nnn3Cc3c(F)cccc3Cl)c(=O)[nH]2)CC1	61%

(continued)
SMILES	AmpC inh no det
N#CC(Cl)Cl	-8%
C=CCn1c(SC(C)C(=O)NC2(C#N)CCCCC2)nnc1-c1ccc(OC)cc1 (stereo unspecified)	78%
Cc1nc2c(c(=O)n1CCC1=CCCCC1)c1nc3ccccc3nc1n2/N=C/c1ccco1	53%
CCc1nc(N)c(C#N)c(-c2ccc(O)c(OC)c2)c1C	-6%
CC(=O)NCCc1ccc(O)c(O)c1	3%
Oc1ccc(Cl)cc1CNc1ccc(Br)cn1	-21%
COc1ccc2c(=O)c3c(=O)n(Cc4ccco4)c(-c4cc(OC)c(OC)c(OC)c4)nc3oc2c1	124%
O=C(O)c1cccc(S(=O)(=O)Nc2ccc3oc(=O)sc3c2)c1	0%
COCCNC(=O)CN1CCN(Cc2cccc(Cl)c2)C1=O	6%
CCc1ccc(OCC(=O)NCc2ccco2)c(Br)c1	49%
COc1ccc(C(=O)Nc2ccccc2C(=O)NCCCn2ccnc2)cc1	12%
Cc1cc(NC(=O)CSc2nnc3c(C)cc4c(C)ccc(C)c4n23)no1	8%
COc1ccc(NC(=O)c2ccc(Cl)c(S(=O)(=O)N3CCc4ccccc4C3)c2)cn1	-22%
COC(=O)Cc1cc(=O)[nH]c(Nc2nc3ccccc3o2)n1	23%
Cc1cccc(NC(=O)c2ccccc2Br)n1	-14%
O=S(=O)(Cc1ccccc1Cl)Nc1ccccn1	-13%
OCCN(Cc1ccccc1)CC1CC2C=CC1C2 (stereo unspecified)	2%
COc1ccc(NC(=O)C2CCCN(S(=O)(=O)c3c(C)n[nH]c3C)C2)cc1 (stereo unspecified)	8%
Cc1nnc(SCC(=O)N2CCOCC2)n1C	-8%
CC(Sc1nc(N)cc(=O)[nH]1)C(=O)NC1CCCCC1 (stereo unspecified)	8%

Reprinted at random: 7 compounds from above, in no set order.
SMILES	AmpC inh no det
O=C(CSc1nnc2ccccn12)N1CCOCC1	14%
CC1CCCN(c2ccc(C(=O)NCC3CCCO3)cn2)C1 (stereo unspecified)	14%
N#Cc1c(N)oc(-c2ccc3c(c2)OCO3)c1-c1ccc2c(c1)OCO2	10µM*
CCCc1nnc(NC(=O)c2ccncc2)s1	12%
CNC(=O)[C@H]1O[C@H](n2cnc3c(NCc4cccc(I)c4)ncnc32)[C@@H](O)[C@@H]1O	93%
COc1ccc(NC(=O)c2ccc(Cl)c(S(=O)(=O)N3CCc4ccccc4C3)c2)cn1	-22%
C#CCSc1nsc(SCC#C)c1C#N	-23%

Continued.
SMILES	AmpC inh no det
Cc1cc(Br)ccc1NC(=O)CCN1C(=O)c2ccncc2C1=O	-1%
CC(=O)NCCNc1ncnc2ccc(-c3ccccc3C#N)cc12	13%
O=C(CCc1ccccc1)Nc1ccc(NC(=O)c2ccco2)nc1	-2%
CCCCN1C(=O)NC(=O)C2(Cc3ccccc3N3CCOCC32)C1=O (stereo unspecified)	13%
O=C(NCCC1=CCCCC1)NC1CCCCC1	-7%
Cc1ccc2nc3c(cc2c1)CN(Cc1ccco1)C(=NCC1CCCO1)S3 (stereo unspecified)	15%
COc1ccc(CNCCNC(=O)c2nonc2N)cc1OC	-15%
COc1cccc(NC(=O)C2CCN(S(C)(=O)=O)CC2)c1	-1%
Brc1ccc(Oc2cc(Br)c(Br)cc2Br)c(Br)c1	-8%&-14%
Cc1nc2ccccc2c(=O)n1N	-9%
Cc1cc(NC(=O)Cn2cnc3c(cnn3C(C)(C)C)c2=O)no1	-2%
C=CCn1c(SCC(=O)O)nnc1-c1cccc(Cl)c1	-6%
COC(=O)c1cc(NC2c3ccccc3C(=O)N2c2cccnc2)cc(C(=O)OC)c1 (stereo unspecified)	4µM*[single pt active]
O=c1oc2c(CN3CCOCC3)c(O)c(Cl)cc2c2c1CCC2	7%
O=C(O)c1ccc2c3c(ncnc13)-c1ccccc1C2=O	-18%
CCOC(=O)C1CCN(C(=O)c2cccnc2)CC1	-6%
CN(C(=O)COc1ccccc1)c1nnc(-c2ccncc2)s1	16%
CCCn1c(C)nc2c(Nc3ccccc3)nc(C)nc21	25%
Cc1ccc(-n2ncc3c(=O)[nH]c(SCC(=O)N4CCN(c5ccccc5)CC4)nc32)cc1	13µM*[single pt active]
C=CCn1c(CSc2nc3ccccc3s2)nnc1SCC(=O)NCc1ccco1	52%

A run of entries from the list above, for reference:
SMILES	AmpC inh no det
COC(=O)Cc1cc(=O)[nH]c(Nc2nc3ccccc3o2)n1	23%
Cc1cccc(NC(=O)c2ccccc2Br)n1	-14%

Later entries:
SMILES	AmpC inh no det
Cc1ccc(NC(=O)Nc2ccc3c(c2)N(C)C(=O)CS3)nc1	1%
N#CCC(=O)N1CCCCCC1	-4%
COc1ccc(CCC(=O)Nc2ccc3c(c2)OCCO3)cc1	?
CCn1c(Cn2nnc(-c3ccccc3)n2)nnc1SCC(=O)N1CCOCC1	33%
Cc1ccc(-c2nnc3ccc(SCC(=O)N4CCCCC4)nn23)cc1	7%

A portion of the library (hit frequency here may not be typical).
